Rango dissoc inh – inhibition of RanGTP-driven Rango-importin beta dissociation. O95149+P62826. Biochemical FRET Rango-importin beta, RanGTP-induced dissociation. Potency, µM (top dose mostly 46.1 µM), inactives show top-dose activity change, negative = inhibition. actives 0.071% (n = 340,000). AID 540253; active means falling FRET ratio curve, often poorly fitted, with flat reads before Ran was added; inconclusive means other falling curves, or compound fluorescence or quenching; inactive means flat or rising ratio curve;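 further: potency means the concentration at half of the fitted maximal effect; % of control where 0% means no effect; nearly all actives have a fitted effect of over 45% in size; -100% = wells without RanGTP and RCC1; the record marks most hits as doubtful in a second field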
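Rango FRET biosensor (snurportin-1 IBB flanked by N-terminal EYFP and C-terminal CFP10) at 0.1 uM, with 0.25 uM importin beta in PBS, 1mM DTT, 0.02% Tween-20, 0.1% BSA. 0.6 uM Ran, 2mM GTP and 0.2 uM RCC1 were then added for 45 min at room temperature. Inhibition read as loss of FRET rise.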
GLA inh pH 4.5 – alpha-galactosidase A (human) inhibition, pH 4.5 | P06280 | purified enzyme, 4-MU-alpha-Gal fluorescence, pH 4.5 | activity change, negative = inhibition, % at 105 µM | 230,000 tested, under 10 active | AID 1467; inconclusive = small, poorly fitted or top-dose-only inhibition, or a rising curve; inactive = flat fitted curve, though single readings scatter; no compound was filed as active;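 further: 0% = full activity with enzyme and -100% = basal without enzyme; dose as in the result columns while the protocol names 77 µM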
Target sequence (P06280 whole entry, looked up): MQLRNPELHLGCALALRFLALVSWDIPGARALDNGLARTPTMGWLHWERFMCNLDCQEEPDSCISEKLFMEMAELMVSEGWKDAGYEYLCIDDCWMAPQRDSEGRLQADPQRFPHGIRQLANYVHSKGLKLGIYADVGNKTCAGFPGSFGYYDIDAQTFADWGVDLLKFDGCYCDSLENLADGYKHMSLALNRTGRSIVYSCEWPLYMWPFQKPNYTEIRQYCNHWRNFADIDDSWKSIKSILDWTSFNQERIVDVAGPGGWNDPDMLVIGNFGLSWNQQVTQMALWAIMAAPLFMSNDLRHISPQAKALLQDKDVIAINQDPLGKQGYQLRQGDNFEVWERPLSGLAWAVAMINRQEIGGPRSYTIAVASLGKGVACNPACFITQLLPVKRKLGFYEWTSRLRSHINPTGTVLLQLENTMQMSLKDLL
Rango complex inh – prevents formation of the Rango-importin beta complex; Q14974; Rango CFP/YFP FRET sensor + importin beta, 45 min; Potency, µM (doses to about 92.2 µM), without a hit: top-dose inhibition of complex formation; actives 0.031% (n = 340,000); AID 540263; active = rising FRET ratio curve, often small or poorly fitted; inconclusive = mostly compound fluorescence or quenching in the first reads; inactive = flat curves in all reads;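 further: potency means the concentration at half of the fitted maximal effect; 0% = DMSO wells and 100% = buffer wells lacking importin beta; nearly all actives have a fitted effect of over 15% in size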
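FRET biosensor Rango (snurportin 1 IBB between N-terminal EYFP and C-terminal Cerulean), 50 nM in PBS/1 mM DTT/0.02% Tween-20/0.1% BSA, preincubated 5 min RT with compound; 0.125 microM importin beta added, 45 min RT, CFP/YFP FRET ratio read.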
miR-21 FLuc – miR-21 reporter, rising signal; HeLa miR-21 FLuc reporter, luciferase, 48 h; Potency, µM (doses to about 38.3 µM), for inactives: top-dose reporter change, positive = more light; 340,000 tested, under 10 active; AID 2288; active = well fitted rising curve with a large enough effect; inconclusive = small, poorly fitted or top-dose-only effect; inactive = no such curve, though single readings can be large or run the other way;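 further: % of control where 0% means no effect; miR-21 action dims this reporter so a rising signal means less miR-21 action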
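Luminescence from a firefly luciferase reporter carrying a miR-21 binding site downstream, stably expressed under a CMV promoter in HeLa cells that make miR-21 endogenously, reports miRNA modulation after 48 h compound exposure up to approximately 40uM final.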
Active calls of the source: *; u = inconclusive; x = no result given. This is a subset (hit frequency here may not be typical).

SMILES	Rango dissoc inh	GLA inh pH 4.5	Rango complex inh	miR-21 FLuc
COc1ccc(-c2cnnc(N/N=C/c3ccc(OC)c(OC)c3)n2)cc1	0%	-5	-2.2%	-6%
CN(C(=O)c1cccc(NC(=O)c2ccccc2)c1)C1CCCCC1	-15%	x	-4.6%	4%
CCN1C(=O)S/C(=C/c2cn(C)c3ccccc23)C1=O	-20%	-3	5.4%	-23%
O=C1CC2CCCN2C=C1I (centres undefined)	1%	x	u	x
Cc1cccc(C(=O)NCC(=O)Nc2ccc(S(=O)(=O)Nc3nc(C)cc(C)n3)cc2)c1	3%	-4	1.6%	-2%
COc1cccc(N(CC(=O)NC2CCCCC2)C(=O)Cn2nnc(-c3ccc(C)o3)n2)c1	24%	x	-5.5%	-2%
Cc1ccc(CNC(=O)COC(=O)c2ccc(S(=O)(=O)NCc3ccco3)cc2)cc1	-7%	x	1.5%	x
O=C(Oc1ccc(C(=S)N2CCOCC2)cc1)c1ccc(Br)cc1	-16%	-10	-3.8%	-2%
Cc1ccc(NC(=S)NN2CCN(C)CC2)cc1	2%	6	0.5%	0%
O=C(CCS(=O)(=O)c1cccs1)Nc1ccc(C(=O)NC2CCN(Cc3ccccc3)CC2)cc1	3%	1	-0.2%	-5%
CCC(=O)n1nc(-c2cccnc2)nc1NCc1ccccc1	5%	-21	-1.5%	-14%
CC(=O)Nc1c(-c2ccccc2)nc2ccc(Cl)cn12	-14%	x	-3.5%	x
COc1ccc(CNC(=O)c2ccc(NC(=O)C3=CSCCO3)cc2)cc1	-2%	x	-0.4%	-41%
O=C(NCC(c1ccco1)N1CCc2ccccc2C1)c1c(F)cccc1F (centres undefined)	-13%	x	0.9%	x
CCCCOc1ccc(C(=O)Nc2ccc3c(c2)C(=O)NC3=O)cc1	u	x	u	-1%
COc1ccc(C(C2C(=O)CC(C)(C)CC2=O)C2C(=O)CC(C)(C)CC2=O)cc1COCC(F)(F)F	-5%	0	-0.9%	-6%
Cc1cc(C)n2c(Br)c(CSc3nc4ccccc4s3)nc2n1	7%	-8	2.8%	-83%
Cc1cc(C)nc(NC(=O)c2cc(-c3ccc4c(c3)OCO4)nc3ccccc23)c1	-4%	x	3.9%	2%
Cc1cc(C)n2nc(-c3cnn(C)c3C(F)(F)F)cc2n1	6%	-2	2.3%	-37%
CC1=NNC(=O)C1CCC(=O)N/N=C(\C)c1ccc(Cl)cc1 (centres undefined)	-11%	-1	0.3%	-8%
O=C(NCCS(=O)(=O)N1CCN(c2ccccc2F)CC1)c1ccc(Br)o1	-9%	x	5.3%	0%
CCOC(=O)CSc1nnc(-c2nnc(SCC(=O)OCC)n2CC)n1CC	7%	6	0.0%	-2%
COc1cc(NC(=O)COC(=O)c2ccc([N+](=O)[O-])s2)cc(OC)c1OC	5%	x	-5.0%	x
COc1ccc(CC(=O)Nc2sc3c(c2C(N)=O)CCCC3)cc1OC	-19%	x	-2.1%	16%
COc1ccc(-c2cc(C(=O)Nc3ccccc3O)c3ccccc3n2)cc1	-5%	x	6.6%	x
CC(O)c1cccc(N=Cc2ccc3ccccc3c2O)c1 (centres undefined)	u	x	u	2%
C[C@@H]1CCCCCCCCC(=O)OCCN(C(=O)OC(C)(C)C)[C@H](C)CCCCCCCCC(=O)OCCN1C(=O)OC(C)(C)C	-12%	x	1.5%	x
CCN(CC)c1ccc2c(C)c(CO)c(=O)oc2c1	u	13	u	-37%
Cn1c(N/N=C2\CCCc3ccccc32)nc2c1c(=O)n(Cc1ccccc1)c(=O)n2C	3%	-2	-2.2%	-7%
C[C@@H]1CN([C@@H](C)CO)C(=O)Cc2cc(NS(=O)(=O)c3ccccc3)ccc2O[C@H]1CN(C)Cc1ccncc1	-10%	x	u	x
CCN(Cc1ccccc1)C(=O)Cc1c[nH]c2ccccc12	-5%	x	-2.8%	4%
CCCNC(=O)OCCC12CC3CC(CC(C3)C1)C2	-9%	-7	-0.7%	-63%
O=[n+]1cc(-c2ccc(Br)cc2)n([O-])c2c1CCC2	-12%	2	2.0%	1%
Cn1c(CC(=O)c2ccc(Br)cc2)[n+](C)c2ccccc21	-15%	-11	2.6%	13%
COCc1cc(C)c(C#N)c(=S)[nH]1	-17%	-4	0.4%	0%
O=C(OCCCN=C1NS(=O)(=O)c2ccccc21)C1CC(=O)N(c2ccc(Cl)cc2)C1 (centres undefined)	7%	7	-1.6%	-4%
COc1ccc(CCNc2nc(-c3ccc(O)cc3)cs2)cc1OC	-10%	x	0.2%	0%
CCOC(=O)CCCNC(=O)COC(=O)c1cccc(F)c1	43%	3	-4.0%	3%
CN(c1ccccc1)S(=O)(=O)c1cccc(NC(=O)CN2C(=O)NC3(CCCC3)C2=O)c1	-12%	x	2.6%	x
CCOC(=O)C1CCN(C(=O)Nc2ccc(NC(=O)C3CCN(C(=O)OCC)CC3)cc2)CC1	-2%	1	1.1%	0%
CC(/C=N/NC(=O)c1cccs1)=C\c1ccco1	-4%	-6	-3.6%	-55%
Cc1cccc(NC2=NCC(=O)N2Cc2cccs2)c1	7%	2	2.2%	-7%
Cc1ccn2c(=O)c(C(=O)O)cnc2c1	4%	11	-0.6%	-9%
O=C(O)c1ccc(NCc2ccncc2)cc1	-10%	3	3.1%	1%
C#CCOc1c(Br)cc(/C=N/O)cc1OCC	9%	-8	2.8%	2%
O=C(COC(=O)CNC(=O)c1ccccc1)Nc1nnc(-c2ccccc2)o1	6%	x	-0.1%	x
N#CC1=C(N)N(c2ccccc2C#N)C2=C(C(=O)CCC2)C1c1ccsc1 (centres undefined)	-1%	-3	u	-4%
CC(NC(=O)c1ccc(CS(=O)(=O)c2cccc(C(F)(F)F)c2)o1)c1ccc2c(c1)OCCO2 (centres undefined)	7%	-6	-0.9%	8%
O=[N+]([O-])c1ccc(/C=N/n2c(C3CCCCC3)n[nH]c2=S)cc1	8%	-7	0.2%	-13%
CCCOC(=O)c1ccc(NC(=O)CSC2=Nc3ccccc3C3CC=NN23)cc1 (centres undefined)	16%	-4	-2.0%	-5%
CC(C)(C)c1nc(SCC(=O)Nc2nc3c(s2)CCCC3)c2ccccc2n1	-5%	-8	-2.5%	-8%
O=C(Nc1ccn(C2CC(OC(=O)c3ccccc3)C(CO)O2)c(=O)n1)c1ccccc1 (centres undefined)	-8%	2	-1.2%	0%
CCn1c(C)c(C(=O)c2ccccc2)c(C#N)c1C(=O)O	-12%	x	-1.9%	-22%
Cc1ccc(-c2ccccc2NC(=O)CCl)o1	-13%	2	3.7%	-2%
CC(C)(C)c1ccc(OCC(=O)NCCN2CCCC2)cc1	2%	-2	-0.2%	-4%
CN(CCO)C1=CC(=O)CC(C)(C)C1	-19%	2	-4.2%	-6%
COC(=O)c1[nH]cnc1C(=O)c1ccccc1	-4%	5	-1.2%	0%
COc1ccc(C(=O)N/C(=C\c2cc(OC)c(OC)cc2[N+](=O)[O-])C(=O)NCC(=O)O)cc1	10%	4	-2.7%	9%
CC1=CC(=O)N(c2ccn(C)n2)C1=O	9%	-2	1.0%	-3%
CCOC(=O)C(=O)NNc1cccc(C)c1C	15%	-3	-1.6%	1%

(cont.)
SMILES	Rango dissoc inh	GLA inh pH 4.5	Rango complex inh	miR-21 FLuc
COc1ccc(NC(=O)Nc2ccc3c(c2)C(=O)N([C@@H](C)CO)C[C@@H](C)[C@@H](CN(C)S(=O)(=O)c2cn(C)cn2)O3)cc1	-5%	x	-5.1%	x
CC1CCCC(NC(=O)C2N(CCCN3CCCC3)C(=O)C3C(C(=O)Nc4ccc(Cl)cc4)C4C=CC32O4)C1C (centres undefined)	2%	x	-3.9%	-3%
O=S(=O)(NCCN1CCOCC1)c1ccc(-c2ccc(S(=O)(=O)NCCN3CCOCC3)cc2)cc1	2%	x	-1.4%	-3%
COc1ccc(C(=O)NCCc2ccc(C)cc2)cc1OC1CCN(C(C)=O)CC1	-14%	x	-0.2%	4%
O=C(CN(Cc1ccccc1)S(=O)(=O)c1ccc(Br)cc1)NCc1ccco1	1%	-3	-2.6%	1%
CCN(CC)S(=O)(=O)c1cccc(C(=O)NC(C(=O)Nc2nnc(C3CC3)s2)C(C)C)c1 (centres undefined)	8%	5	4.3%	0%
O=C(COC(=O)c1cc([N+](=O)[O-])ccc1NCCO)c1ccc(Cl)cc1	5%	-1	0.2%	-1%
CCOC(=O)C1=C(COC(=O)C(CC)Oc2ccccc2)NC(=O)NC1C (centres undefined)	-6%	x	-1.5%	x
Cc1ccn2c(=O)nc(SCC(=O)Nc3ccc4c(c3)OCCO4)nc2c1	3%	x	0.4%	x
Cc1nn2c(-c3ccccc3)ccnc2c1-c1ccccc1	10%	2	-2.5%	-58%
COc1cc(NC(=O)Cn2ncc3c2-c2ccccc2OC3)cc(OC)c1OC	-9%	-1	-0.7%	1%

Arranged by number of heavy atoms (smallest number first): 14 of the compounds above
SMILES	Rango dissoc inh	GLA inh pH 4.5	Rango complex inh	miR-21 FLuc
CC1=CC(=O)N(c2ccn(C)n2)C1=O	9%	-2	1.0%	-3%
CCOC(=O)C(=O)NNc1cccc(C)c1C	15%	-3	-1.6%	1%
CCn1c(C)c(C(=O)c2ccccc2)c(C#N)c1C(=O)O	-12%	x	-1.9%	-22%
Cc1nn2c(-c3ccccc3)ccnc2c1-c1ccccc1	10%	2	-2.5%	-58%
O=C(COC(=O)c1cc([N+](=O)[O-])ccc1NCCO)c1ccc(Cl)cc1	5%	-1	0.2%	-1%
Cc1ccn2c(=O)nc(SCC(=O)Nc3ccc4c(c3)OCCO4)nc2c1	3%	x	0.4%	x
CC(C)(C)c1nc(SCC(=O)Nc2nc3c(s2)CCCC3)c2ccccc2n1	-5%	-8	-2.5%	-8%
COc1cc(NC(=O)Cn2ncc3c2-c2ccccc2OC3)cc(OC)c1OC	-9%	-1	-0.7%	1%
CCCOC(=O)c1ccc(NC(=O)CSC2=Nc3ccccc3C3CC=NN23)cc1 (centres undefined)	16%	-4	-2.0%	-5%
O=C(Nc1ccn(C2CC(OC(=O)c3ccccc3)C(CO)O2)c(=O)n1)c1ccccc1 (centres undefined)	-8%	2	-1.2%	0%
COc1ccc(C(=O)N/C(=C\c2cc(OC)c(OC)cc2[N+](=O)[O-])C(=O)NCC(=O)O)cc1	10%	4	-2.7%	9%
O=S(=O)(NCCN1CCOCC1)c1ccc(-c2ccc(S(=O)(=O)NCCN3CCOCC3)cc2)cc1	2%	x	-1.4%	-3%
CC1CCCC(NC(=O)C2N(CCCN3CCCC3)C(=O)C3C(C(=O)Nc4ccc(Cl)cc4)C4C=CC32O4)C1C (centres undefined)	2%	x	-3.9%	-3%
COc1ccc(NC(=O)Nc2ccc3c(c2)C(=O)N([C@@H](C)CO)C[C@@H](C)[C@@H](CN(C)S(=O)(=O)c2cn(C)cn2)O3)cc1	-5%	x	-5.1%	x

Screens deposited in PubChem BioAssay by National Center for Advancing Translational Sciences (NCATS).
